Compound activity deposited in PubChem by several laboratories.
T cruzi inh – blocks replication of Trypanosoma cruzi. T. cruzi beta-gal in NIH3T3, luminescence, 90 h. inhibition, % (no concentration beside the values). 300,000 tested, 1.4% active;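 active means mean inhibition across valid replicates above about 55%, limit read from the data; inconclusive means mean below that limit but half or more replicates reach it; inactive means mean below it, under half of replicates reach it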;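 further: signal also drops with host cell toxicity which is not excluded here; 0% = plate median of DMSO wells and 100% = zero luminescence signal; higher percent means less beta-gal luminescence so fewer parasites; stock transfer was 50 nL into about 50 µL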
AF4-AF9 inh – inhibitors of human MLL-AF4/AF9 interaction. inhibition, % at 10 µM. P42568. 350,000 tested, 0.47% active. AlphaScreen, biotin-AF4 peptide binding to FLAG-AF9;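 active means every replicate reaching a set inhibition limit, whatever the replicate mean, cut at about 25% in these data; inconclusive means mean inhibition reaches that limit but some replicates miss it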;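 further: 0% = plate neutral control median and 100% = total signal loss; the record names both 10 and 1 µM as test concentration; the first replicate is given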
Target sequence (P42568 whole entry, looked up): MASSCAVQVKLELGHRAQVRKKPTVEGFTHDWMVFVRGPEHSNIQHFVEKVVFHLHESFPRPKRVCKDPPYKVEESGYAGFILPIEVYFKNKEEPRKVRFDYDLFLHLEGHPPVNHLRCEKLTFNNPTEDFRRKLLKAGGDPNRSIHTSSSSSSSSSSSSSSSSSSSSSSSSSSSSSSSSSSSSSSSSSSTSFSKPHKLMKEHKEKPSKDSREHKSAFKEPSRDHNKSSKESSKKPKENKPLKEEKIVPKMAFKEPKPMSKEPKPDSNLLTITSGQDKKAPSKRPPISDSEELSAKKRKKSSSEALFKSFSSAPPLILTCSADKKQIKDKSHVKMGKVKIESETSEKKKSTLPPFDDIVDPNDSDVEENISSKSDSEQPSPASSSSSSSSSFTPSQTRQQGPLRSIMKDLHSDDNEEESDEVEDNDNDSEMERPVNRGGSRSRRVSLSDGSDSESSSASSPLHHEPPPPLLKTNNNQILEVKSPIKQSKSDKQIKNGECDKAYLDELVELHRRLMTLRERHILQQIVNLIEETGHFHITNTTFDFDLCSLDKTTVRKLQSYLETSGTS
rRNA inh HTS – inhibitors of bacterial rRNA selective over humanized ribosomes. GFP signal change (wild-type ribosome), % (test concentration not listed). E. coli WT GFP vs humanized-ribosome RFP mutants, fluorescence, 24 h; stronger effect = lower value; DMSO median 0, no signal -100. 350,000 tested, 1.6% active;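 active means significant combined selectivity score with lowered wild-type GFP, culture density cut under 30%, mutant RFP and density less affected; inactive means any of these conditions unmet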; further: one replicate is shown; some compounds called inactive have numbers as strong as hits
FGF22 binding – shifts melting point of recombinant human FGF22. AID 651658. recombinant FGF22 thermal shift, SYPRO orange fluorescence; percent of sucrose octasulfate shift, DMSO zero. calls only at 9.99 µM. 340,000 tested, 1.5% active;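 active means melting point raised past a set limit in the mean and every replicate; inconclusive means no clear call; three in four hits are not shown here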
Target sequence (Q9HCT0 whole entry, looked up): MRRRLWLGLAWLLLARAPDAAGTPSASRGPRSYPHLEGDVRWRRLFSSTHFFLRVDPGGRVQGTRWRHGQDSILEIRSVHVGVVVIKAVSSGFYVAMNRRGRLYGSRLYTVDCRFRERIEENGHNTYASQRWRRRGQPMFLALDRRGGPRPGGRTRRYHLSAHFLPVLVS
Beta cell apopt – beta cell apoptosis inhibition | AID 435005 | protection from apoptosis, % (no concentration beside the values) | 300,000 tested, 0.8% active | INS-1E cytokine-induced death, ATP luminescence, 48 h; percent of positive-control rescue, neutral wells zero;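 active means all replicates at 75% or more, or half of them and the mean; inconclusive means half reach 75% but not the mean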;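 further: 0% = cytokine-treated negative control wells and 100% = positive control rescue; higher means more ATP so stronger rescue from cytokine killing; wells of about 40 µL received 100 nL stock; the first replicate is given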
UCH37 DUB inh – human UCH37 deubiquitinating enzyme inhibition. inhibition, % (concentration not given with the values). 330,000 tested, 0.33% active. AID 588478. Q9Y5K5. purified proteasome/UCH37, Ub-AMC cleavage fluorescence;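 active means mean of two replicates above 20%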;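 further: 0% = compound-free wells with enzyme and 100% = wells lacking proteasome; stock transfer was 100 nL into about 20 µL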
Target sequence (Q9Y5K5 whole entry, looked up): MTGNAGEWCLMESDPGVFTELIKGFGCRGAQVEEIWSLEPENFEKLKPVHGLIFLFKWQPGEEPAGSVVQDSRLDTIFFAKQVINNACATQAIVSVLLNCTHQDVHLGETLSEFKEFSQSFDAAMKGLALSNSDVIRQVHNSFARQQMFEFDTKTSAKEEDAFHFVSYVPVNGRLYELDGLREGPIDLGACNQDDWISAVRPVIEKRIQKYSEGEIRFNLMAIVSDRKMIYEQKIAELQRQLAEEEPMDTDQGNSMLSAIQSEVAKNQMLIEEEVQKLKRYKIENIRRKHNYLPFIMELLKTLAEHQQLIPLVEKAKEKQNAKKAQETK
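System: Proteasome-associated human UCH37 deubiquitinase; Input: 0.15 nM proteasome in added enzyme buffer; Also added: Ub-AMC substrate from 1 µM stock; Incubation: 30 min compound-proteasome preincubation then 25 min substrate reaction, room temperature; Detection: fluorescence, ex 355 nm, em 460 nm; Read-out: % inhibition of Ub-AMC cleavage fluorescence; Benchmarks: no-proteasome and no-compound wells.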
A1 inh – inhibitors of the anti-apoptotic protein A1, read as caspase activation. MEF A1-2A-BIM cells, Caspase-Glo 3/7 luminescence, 3 h; percent of clofoctol response, vehicle zero. caspase activation, % (no concentration beside the values). 330,000 tested, 0.066% active. AID 2462;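 active means over half of replicate activation scores above 10%, or exactly half above 10 with the replicate mean above 10; inconclusive means replicate mean below 10 yet half the replicates above 10; inactive means over half of replicates below 10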;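 further: wells of about 30 µL received 50 nL stock; many hits fall short of the cut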
E coli growth – inhibitors of Escherichia coli growth; OD600, 23 h; stronger effect = lower value; OD600 absorbance (concentration not given with the values); 330,000 tested, 0.21% active; AID 1053175;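 active means OD600 absorbance below the run mean of sample wells minus 3.6 SD, in any replicate, cut at about 0.56 in these data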;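 further: stock transfer was 300 nL into about 60 µL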
rRNA inh HTS OD600 – second read-out of rRNA inh HTS, no call of its own (marks repeat the call); OD600 change, %; measured here: OD600 growth;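 optical density of the mix in the first replicate; 0 = DMSO median and -100 = no signal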
rRNA inh HTS RFP – further read-out of rRNA inh HTS, marked with its call; RFP signal change, %; measured here: RFP humanized mutant strains;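 first replicate; 0 = DMSO median and -100 = no signal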
* marks the source's active call; other numbers are inactive results; i = inactive; ? = inconclusive; / = not tested or not shown. Some of the compounds tested; the hit share may differ from the screen's.

SMILES	T cruzi inh	AF4-AF9 inh	rRNA inh HTS	rRNA inh HTS OD600	rRNA inh HTS RFP	FGF22 binding	Beta cell apopt	UCH37 DUB inh	A1 inh	E coli growth
Cc1c(NC(=O)CN2CCN(c3cccc(Cl)c3)CC2)c(=O)n(-c2ccccc2)n1C	2	-3.4	-9	-2	-9.4	i	2	4.0	-0.8	0.7
CCOC(=O)CNC(c1ccccc1)c1cc(Br)ccc1NC(C)=O (stereo not given)	-21	-2.1	4	6	0.8	i	3	1.8	-0.1	0.72
COc1ccc(C2C3=C(CCCC3=O)Nc3nc(C(F)(F)F)nn32)cc1OC (stereo not given)	-3	/	/	/	/	/	-6	-2.3	0.1	0.76
Cc1ccc(CSc2nc3[nH]ncc3c(=O)[nH]2)cc1	-5	2.0	-8	-14	-6.6	i	-5	4.9	-3.0	0.67
Nc1c(Cl)cc(-c2csc(N3CCCC3c3nc4cc(Cl)c(Cl)cc4n3CCOCCO)n2)cc1Cl (stereo not given)	15	-0.2	-3	-3	-2.2	i	-4	28*	-0.7	0.7
Cc1noc(NS(=O)(=O)c2ccc(NC(=O)c3ccc(Br)o3)cc2)c1C	-11	/	/	/	/	/	-5	0.9	-1.3	0.67
CCCCCCCCSc1nnc(CSc2nc3nc(C)cc(C)n3n2)o1	15	-15	-6	-13	5.8	i	?	1.6	0.0	0.67
Cc1ccc(NC(=O)COC(=O)Cc2ccc(Br)cc2)cc1S(=O)(=O)N1CCOCC1	/	-1.7	-5	-14	1.3	i	-3	-0.5	0.0	0.69
NC(=O)CSc1nc2c(sc3ccccc32)c(=O)n1CCCN1CCOCC1	-24	/	/	/	/	/	0	7.2	0.1	0.74
Cc1csc(Sc2ccc(C(=O)OCC(=O)Nc3ccc(OC(F)(F)F)cc3)cc2[N+](=O)[O-])n1	-1	/	/	/	/	/	-5	4.7	0.3	0.72
COc1ccccc1-c1sc2ccccc2c1C#Cc1ccc(N(C)C)cc1	/	1.3	2	25	9.2	i	13	-219	-1.1	0.73
Cc1ccc(NC(=O)C2CCCN2C(=O)NC2CCCCC2)cc1C (stereo not given)	/	-0.4	19	-4	1.4	i	0	4.8	0.3	0.68
CN(CC1COc2ccccc2O1)C(=O)c1ccc(N(C)C)cc1 (stereo not given)	-14	12	-3	-15	-2.5	i	1	-1.7	0.7	0.67
O=C(c1cc2ccccc2o1)N1CCN=C1SCc1cccc(F)c1	4	-2.8	7	6	-4.5	i	8	3.9	0.2	0.72
Fc1cccc2sc(N3CCCCC3)nc12	-10	/	/	/	/	/	/	1.5	-6.4	0.64
CC(C)C(C(=O)Nc1nccs1)N1C(=O)c2ccccc2C1=O (stereo not given)	-10	-1.5	13	6	-0.5	i	-5	1.0	0.8	0.69
Cc1sc2nc(CN(Cc3cccs3)C(=O)NC3CCCCC3)[nH]c(=O)c2c1C	12	/	/	/	/	/	9	2.9	0.1	0.71
O=C(O)c1ccc(N2CC3CC(C2)c2cccc(=O)n2C3)c(NC(=S)Nc2ccc(Br)cc2)c1 (stereo not given)	4	8.2	-60	-79	-23	i	1	6.5	?	0.61
CC(=O)c1ccccc1Oc1nc(CN2CCOCC2)nc2scc(-c3cccs3)c12	24	/	/	/	/	/	5	5.6	-0.9	0.69
COc1ccc(/C=C/C2=NNC(=O)CC2)cc1	-7	1.5	5	0	-1.3	i	-10	7.9	-2.3	0.66
COc1ccc(/C=C/C(=O)c2c(C)cc(C)[nH]c2=O)c2ccccc12	11	7.5	-12	-16	1.1	/	-8	0.2	1.7	0.66
Cc1cc(C)n(-c2ccc(C(=O)OCC(=O)Nc3ccc([N+](=O)[O-])cc3)cc2)n1	1	/	/	/	/	/	6	2.6	-0.8	0.67
O=c1[nH]c(Cc2ccccc2)nc2scc(-c3ccccc3)c12	6	/	/	/	/	/	1	2.4	-0.6	0.76
Cc1cc(=O)oc2c3c(cc(OCC(=O)N[C@@H](C)C(=O)O)c12)OC(C)(C)CC3	-6	-2.7	2	-1	0.1	i	-2	i	-0.5	0.66
CCOC(=O)CC1C(=O)NCCN1C(=O)COc1ccc(Br)cc1C (stereo not given)	-14	/	/	/	/	/	-6	1.0	0.1	0.78
OC[C@H]1OC(O)C[C@@H](O)[C@@H]1O (stereo not given in full)	-7	-2.1	/	/	/	i	-4	0.7	-0.4	/
CCOc1ccccc1NCc1cc(=O)oc2cc(C)c(O)cc12	40	1.1	0	3	-1.2	i	9	4.3	0.1	0.72
O=C(Nc1ccc(Cl)cc1)Nc1cc(S(=O)(=O)N2CCOCC2)ccc1N1CCCC1	26	3.4	-28	-34	-2.8	i	-1	4.1	-0.4	0.7
CCN(CC(=O)Nc1c(F)cccc1F)C(=O)c1ccc(C#N)cc1	-6	-2.1	7	10	-1.4	i	-8	2.5	-0.1	0.67
O=[N+]([O-])c1cc(-c2csc(NCCc3nc4cc(Cl)c(N5CCCCC5)cc4n3CCCO)n2)ccc1Cl	50	1.5	0	1	-2.0	i	-3	4.7	-1.0	0.75
CC[C@H](C)[C@H](NC(N)=O)C(=O)OCC(=O)NCc1ccc(Cl)cc1	0	-1.4	-10	-4	2.4	i	-5	-2.1	?	0.69
O=S(=O)(Nc1ccc2c(c1)OCCO2)c1cccc2nsnc12	-3	/	/	/	/	/	-2	4.0	0.2	0.67
Cc1nc(CNC(=O)C2CCC(=O)N(Cc3cccc(F)c3)C2)sc1C (stereo not given)	-4	-1.3	15	9	2.7	i	-7	1.9	-0.5	0.66
NC(=O)C1CCCN(C(=O)NC2CCCCC2)C1 (stereo not given)	-9	/	/	/	/	/	3	0.4	0.4	0.79
COc1ccc([C@H]2CC(=O)C=C(/C=C/Cc3ccccc3)C2)cc1	/	/	-3	-3	-2.5	i	-8	-0.2	-0.9	/
O=C(O)C1Cc2ccccc2CN1C(=O)CCl (stereo not given)	5	-0.1	8	-4	-3.0	i	-6	4.0	0.0	0.7
C=CCn1c(P(=O)(O)c2ccccc2)nc2ccccc21	-10	/	/	/	/	/	-6	0.8	-0.2	0.69
FC(F)(F)c1ccc(Cl)c(NC(=S)N/N=C/c2ccccc2C(F)(F)F)c1	10	1.5	9	2	3.7	i	8	/	0.5	/
CCCn1c(=N)n(CC(=O)C(C)(C)C)c2ccccc21	7	/	/	/	/	/	4	4.9	0.3	0.73
CCC(=O)NC(NC(=S)Nc1ccc(S(N)(=O)=O)cc1)C(Cl)(Cl)Cl (stereo not given)	-17	/	/	/	/	/	-3	0.8	-0.9	0.64
COc1ccccc1Oc1nc(-c2ccccc2)cc(C)c1S(C)(=O)=O	7	/	/	/	/	/	-7	5.3	-0.7	0.8
Cc1noc(C)c1COc1ccc(C(=O)NCCc2ccc(F)cc2)cc1	/	-0.3	11	3	3.4	/	10	-0.8	-1.3	0.68
CC1=C(C(=O)OC(C)C)C(c2ccccc2)NC(=S)N1C (stereo not given)	-17	8.4	0	6	-2.9	i	-2	0.9	-0.6	0.68
Cc1cc(S(=O)(=O)Nc2ccc(C(=O)N3CCN(C(=O)c4ccco4)CC3)cc2)ccc1F	-1	/	/	/	/	/	4	2.2	0.1	0.78
CC(/C=C/c1ccco1)=N\NC(=O)COc1ccc(C)c(C)c1	-8	-2.9	-3	4	6.5	i	0	/	0.7	/
COc1cc(-c2ccc(NC(=O)NC3CC3)c(OC)c2)ccc1NC(=O)NC1CC1	-5	-3.9	5	6	-0.2	i	10	-42	0.5	0.74
O=C(NN1CCCCC1)c1cccc2ccccc12	0	-2.2	13	4	1.6	i	-2	1.2	0.9	0.66
Cc1ccc(C(=O)N/C(=C\c2ccc(-c3ccc(Cl)cc3)o2)C(=O)NCCCN(C)C)cc1	56*	22	-63	-83	-20	i	110*	-37	-0.9	0.66
Cc1cccc(S(=O)(=O)N2CCCc3ccccc32)c1	13	-7.0	-4	-4	2.5	i	-3	1.8	-0.5	0.66
Cc1ccc(S(=O)(=O)NCCC(=O)N2CC(C)OC(C)C2)cc1C (stereo not given)	-5	?	-1	0	-1.6	i	-1	0.5	0.0	0.6
CCc1cccc(NC(=O)CCS(=O)(=O)c2ccc(Br)cc2)c1	-6	-5.2	0	-16	2.1	i	-2	-0.8	0.4	0.69
COc1ccc(NC(=O)Cc2cccs2)cc1S(=O)(=O)N1CCCCC1	/	-0.3	-9	-16	1.3	i	3	2.1	0.7	0.68
Clc1ccc(-c2nnc(SCc3cn4ccsc4n3)n2CC2CCCO2)cc1 (stereo not given)	20	/	/	/	/	/	-5	-0.2	0.5	0.7
O=C1C2N=NN(CC(=O)N3N=C(c4ccccc4)CC3c3ccc([N+](=O)[O-])cc3)C2C(=O)N1c1ccccc1 (stereo not given)	-3	-3.4	7	1	-7.0	i	4	3.4	0.3	0.67
CCn1ccnc1CN(C)Cc1nc(-c2ccc(C(=O)OC)cc2)no1	1	1.9	18	-6	-0.9	i	0	4.1	-1.2	0.68
C/C(Cl)=C/Cn1c(NCCN(C)C)nc2c1c(=O)n(C)c(=O)n2C	30	/	/	/	/	/	0	4.4	-0.5	0.75
COc1ccccc1N1CCN(CC(=O)Nc2c(C)n(C)n(-c3ccccc3)c2=O)CC1	-5	-0.5	4	7	0.2	i	0	-0.2	-0.6	0.71
COCCNCCCCOc1c(Cl)cc(C)cc1Br	3	/	/	/	/	/	2	4.9	0.4	0.7
Cc1onc(-c2c(F)cccc2Cl)c1C(=O)NNC(=O)C1CCN(Cc2ccccc2)CC1	0	1.1	11	12	0.9	i	-4	4.2	-0.1	0.7
Cc1c(CCC(=O)NCCCN2CCCC2=O)c(=O)oc2c(C)c(O)ccc12	-4	-1.3	/	/	/	i	0	-480	0.1	0.73
Brc1ccc(-c2nnc(-c3cccnc3)o2)cc1	-6	/	8	8	-3.5	i	-1	3.0	-0.6	0.69
CCC(=O)Nc1ccc2nc(C3CC3)n(Cc3ccc(C(C)(C)C)cc3)c(=O)c2c1	58*	-4.1	1	-2	-8.4	i	7	-2.1	-7.5	0.73

Filtered by structure: the entries above containing a CF3 group
SMILES	T cruzi inh	AF4-AF9 inh	rRNA inh HTS	rRNA inh HTS OD600	rRNA inh HTS RFP	FGF22 binding	Beta cell apopt	UCH37 DUB inh	A1 inh	E coli growth
COc1ccc(C2C3=C(CCCC3=O)Nc3nc(C(F)(F)F)nn32)cc1OC (stereo not given)	-3	/	/	/	/	/	-6	-2.3	0.1	0.76
Cc1csc(Sc2ccc(C(=O)OCC(=O)Nc3ccc(OC(F)(F)F)cc3)cc2[N+](=O)[O-])n1	-1	/	/	/	/	/	-5	4.7	0.3	0.72
FC(F)(F)c1ccc(Cl)c(NC(=S)N/N=C/c2ccccc2C(F)(F)F)c1	10	1.5	9	2	3.7	i	8	/	0.5	/
